# GIV-Gai inh – GIV-Galpha-i interaction inhibition; percent of control (FP), % (test concentration not listed); P08753; Galpha-i3/FITC-GIV peptide fluorescence polarization, 90 min; active compounds read low; scaled: aluminum fluoride 0%, vehicle 100%; hit rate 0.42% among 210,000;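 active = replicate mean at 85% of control or lower, very high polarization wells dropped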;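 also: lower values mean more displacement of the GIV peptide from Galpha-i3; wells of about 15 µL received 100 nL stock; the first replicate is given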
# Target sequence (P08753 whole entry, looked up): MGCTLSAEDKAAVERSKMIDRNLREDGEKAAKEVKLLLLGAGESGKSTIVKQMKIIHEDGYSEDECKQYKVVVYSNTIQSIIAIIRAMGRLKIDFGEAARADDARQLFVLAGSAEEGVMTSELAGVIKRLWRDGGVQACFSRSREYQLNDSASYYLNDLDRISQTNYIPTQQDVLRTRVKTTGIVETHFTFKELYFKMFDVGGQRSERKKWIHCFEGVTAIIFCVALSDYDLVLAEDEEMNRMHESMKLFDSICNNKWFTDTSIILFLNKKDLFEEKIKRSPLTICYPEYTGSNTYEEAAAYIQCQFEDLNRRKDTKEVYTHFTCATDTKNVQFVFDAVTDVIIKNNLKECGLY
# Numbers without * were called inactive. This is a subset. The share of hits here may be higher or lower than overall.
SMILES,GIV-Gai inh
CCCCCCN1C(=O)C(=O)/C(=C(\O)c2ccccc2)C1c1ccc(C)cc1 (centres undefined),107
Cc1cccc(-c2cnc(Nc3cccc(C(=O)Nc4cccc(Br)c4)c3)nc2)c1,104
CCOc1ccc(N2C(=O)C(=O)/C(=C(/O)c3ccccc3)C2(O)C(=O)OC)cc1 (centres undefined),105
CCOc1cccc2c1N(C(=O)c1ccc([N+](=O)[O-])cc1)C(C)(C)C1=C2C2(SC(C(=O)OC)=C(C(=O)OC)S2)C(C(=O)OC)=C(C(=O)OC)S1,103
CCOC(=O)c1ccccc1NC(=O)Cn1nc2c(Sc3ccccc3)nccn2c1=O,105
Cc1ccc(-c2nnc(NC(=O)CN3CCN(S(=O)(=O)c4cc(C)c(C)cc4C)CC3)s2)cc1,100
Cc1sc(-c2nc(C(C)C)cs2)cc1S(=O)(=O)NCCCN1CCCC1,106
CCOc1ccc2c(c1)N(C(=O)C(F)(F)F)C(C)(C)C(=S)C2=C1SC(C(=O)OC)=C(C(=O)OC)S1,111
CC1(C)CC(=O)C2=C(C1)Nc1ccc3ccccc3c1C2c1ccc(F)c(Br)c1 (centres undefined),114
CNC(=O)C1(c2ccc(NC(=O)c3ccc(Br)cc3)cc2)CC1,102
COCCN(Cc1ccc(C(C)C)cc1)Cc1cc(=O)n2cc(C)sc2n1,106
Cc1ccc(S(=O)(=O)Nc2ccc(Cl)cc2C(=O)N2CCN(S(=O)(=O)c3ccc(Cl)cc3)CC2)cc1,111
Cc1c(CC(Cl)(Cl)Cl)c2c(n1-c1ccccc1[N+](=O)[O-])CCCC2=O,104
O=C1C2C3c4ccccc4C(c4ccccc43)C2C(=O)N1c1ccc([N+](=O)[O-])cc1Br (centres undefined),110
CCCCOc1ccc(C(=O)Nc2ccc3nc(SCC(=O)NCC4CCCO4)sc3c2)cc1 (centres undefined),115
CN1CCN(C2=NC(=O)/C(=C\c3ccc4c(c3)OCO4)S2)CC1,114
Clc1cccc(CSc2nc(NCc3ccco3)c3ccccc3n2)c1,105
CCOC(=O)c1[nH]c(C)c(CN(Cc2ccc(C)cc2)C(=O)c2cc3ccc(OC)cc3[nH]2)c1C,105
Cn1c(N2CCCC(C(=O)NCCCN3CCOCC3)C2)cc(=O)n(C)c1=O (centres undefined),103
Cn1nc(C(=O)Nc2cccc(OCc3nnc(-c4ccc(Cl)cc4)o3)c2)c2ccccc21,112
Clc1ccc(Nc2nc(NC3CCCCC3)nc(N3CCOCC3)n2)cc1,111
Cc1cc(NC(=O)CSc2n[nH]c(N)n2)no1,101
Cc1ccc(NC(=O)c2sc3ncn(CC(=O)N4CCCC(C)C4)c(=O)c3c2C)c(Br)c1 (centres undefined),106
CC1=C(C(=O)Nc2ccccc2)C(c2ccc(C(=O)O)cc2)n2nc(SCc3ccccc3)nc2N1 (centres undefined),97
COC(=O)C1=C(C)OC(N)=C(C#N)C1c1ccc(OCc2ccccc2)cc1 (centres undefined),107

# Some values from the results shown:
# For GIV-Gai inh, `Cc1cc(NC(=O)CSc2n[nH]c(N)n2)no1` is listed with 101
# For GIV-Gai inh, `CN1CCN(C2=NC(=O)/C(=C\c3ccc4c(c3)OCO4)S2)CC1` is listed with 114
# For GIV-Gai inh, `COC(=O)C1=C(C)OC(N)=C(C#N)C1c1ccc(OCc2ccccc2)cc1` (centres undefined) is listed with 107
# For GIV-Gai inh, `Clc1ccc(Nc2nc(NC3CCCCC3)nc(N3CCOCC3)n2)cc1` is listed with 111
# For GIV-Gai inh, `CC1(C)CC(=O)C2=C(C1)Nc1ccc3ccccc3c1C2c1ccc(F)c(Br)c1` (centres undefined) is listed with 114

# Additional entries follow.
SMILES,GIV-Gai inh
NC(=O)c1nsc2c(=O)n(CC(=O)NC3CCCC3)cnc12,100
CC1CCN(S(=O)(=O)c2ccc3nn(Cc4cc(F)cc(F)c4)c(=O)n3c2)CC1,98
COc1ccccc1Oc1cc(-c2ccc(C(=O)Nc3cccc(C)c3)cc2)ncn1,113
O=C1Nc2cc(C(=O)N3CCN(c4ccccn4)CC3)ccc2NC1CS(=O)(=O)Cc1cccc(Cl)c1 (centres undefined),100
Cc1cc(C)nc(NS(=O)(=O)c2ccc(N=Cc3c(C)[nH]n(-c4ccccc4)c3=O)cc2)n1,112
COC(=O)C(C)SC1=NS(=O)(=O)c2cc(Cl)ccc2N1 (centres undefined),101
COc1ccc(C2N(c3ccc(C)cc3)CCN2c2ccc(C)cc2)cc1Br,111
COc1ccc(C2=NN3C(C2)c2cc(OC)ccc2OC3c2cccc(Cl)c2)cc1 (centres undefined),109
COc1ccc(C(=O)OCCN(C2=NS(=O)(=O)c3ccccc32)c2cccc(C)c2)cc1OC,104
COc1ccc(-n2c(=S)[nH]c3cc(C(=O)Nc4ccc(OC)c(OC)c4)ccc3c2=O)c(OC)c1,105
COc1cc2c(cc1OC)C(CCCCl)=NC(C)(C)C2,120
CC(C)n1cc(C(=O)O)c(S(=O)(=O)N2CCSCC2)n1,99
CC1CCCCN1CCNC(=O)C1CC(=O)N(c2ccc3c(c2)CCN3C(=O)C2CC2)C1 (centres undefined),99
O=C(NC1CCCC1)c1nnc(-c2ccc(S(=O)(=O)N3CCCC3)cc2)o1,102
COc1ccc(C2CC(c3cccs3)=NN2C(=O)CSc2nnc(CNC(=O)c3ccccc3F)n2C)cc1 (centres undefined),107
CCOC(=O)C1CCN(C(=O)c2snc3c(=O)n(C)c(=O)[nH]c23)CC1,103
O=C1CC(Sc2ncn[nH]2)C(=O)N1c1ccc(-c2ccccc2)cc1 (centres undefined),111
COc1ccc(/C=c2\sc3nc(-c4ccccc4)c(-c4ccccc4)n3c2=O)c(OC)c1OC,88
Cc1ccc(N2CCN(CC(O)Cn3c4ccccc4c4ccccc43)CC2)cc1 (centres undefined),114
Cc1ccc(CNC2=NCCNC23CCN(S(=O)(=O)c2cccs2)CC3)cc1,111
O=C1CCCC2=C1C(c1cccs1)C1=C(N2)c2ccccc2C1=O (centres undefined),105
COc1cccc(-c2nc(-c3ccccc3)c(-c3cc([N+](=O)[O-])ccc3C)[nH]2)c1OC,118
CC(=O)C1=NN(c2ccc(Cl)cc2)C(c2cccc(OCc3c(Cl)cccc3Cl)c2)N1c1ccc(C)cc1 (centres undefined),111
O=C(c1ccc(C(F)(F)F)s1)N1C[C@@H]2C[C@H](NS(=O)(=O)c3cccs3)[C@H]1C2,95
CCOC(=O)C(C)NC(=O)N1CCCN(c2nc3cccnc3s2)CC1 (centres undefined),104

# Additional compounds follow.
SMILES,GIV-Gai inh
CCc1ccc(S(=O)(=O)c2cnc(N3CCN(C4CCCCC4)CC3)nc2N)cc1,100
Cc1nn(CC(=O)NC(C)(C)C)c(C)c1S(=O)(=O)N1CCCC(C(=O)N2CCC(C)CC2)C1 (centres undefined),104
O=C1COc2ccc(S(=O)(=O)N3CCCC3)cc2N1Cc1noc(C2CCC2)n1,100
CCN(CC)S(=O)(=O)c1ccc2c(c1)cc(C(=O)N1CCN(C3CCCCC3)CC1)n2C,101
CNc1cc(S(=O)(=O)O)c2nc(C)cc3c2c1C(=O)c1ccccc1-3,117
c1cc(-c2noc(-c3ccc4c(c3)OCO4)n2)cc(N2CCCC2)n1,96
COc1cccc(NC(=O)C2CCN(c3c(NC(C)=O)c(C)nn3-c3ccccc3)CC2)c1,105
CN(CC1(C)CCOCC1)S(=O)(=O)Cc1cc(F)cc(F)c1,103
O=C(NC1CCCCC1)C1CCCN(c2nc3ccc(Br)cc3[nH]2)C1 (centres undefined),102
Cc1oc(-c2cccc(Br)c2)nc1Cn1c(=O)c2cccnc2n(-c2ccccc2)c1=O,109
CCOC(=O)C1C(=O)NC(SCC(=O)Nc2ccc(C)c(C)c2)=C(C#N)C1c1ccccc1OC (centres undefined),103
CCN(CC)C1N(C(=O)c2ccccc2)N=C2c3ccccc3S(=O)(=O)N21 (centres undefined),106
O=S(=O)(c1cc(-c2noc(C3CC3)n2)cs1)N1CCN(c2ccccn2)CC1,97
CC(=O)N1CCC(C(=O)NCc2ccc(-c3nc(-c4cccs4)no3)s2)CC1,107
COc1ccc(NC(=O)c2ccc(C3Nc4ccccc4S(=O)(=O)N3)cc2)cc1OC (centres undefined),102
O=C(CSc1nccnc1N1CCN(c2ccc(F)cc2)CC1)Nc1ccc2c(c1)OCCO2,103
COc1ccc(CCn2c(=S)[nH]c3cc(C(=O)NCc4ccc5c(c4)OCO5)ccc3c2=O)cc1OC,119
CCOC(=O)c1ccc(NC(=O)c2ccc(=O)n(Cc3ccccc3F)c2)cc1,106
COc1ccc(CNC(=O)c2ccc(-c3ccsc3)cc2)c(OC)c1,103
COc1cccc(C(=O)N2N=C(C(F)(F)F)CC2(O)c2cccc(OC)c2)c1 (centres undefined),105
CCCCOc1ccc(C2C(N3C(=O)c4ccc([N+](=O)[O-])cc4C3=O)C(=O)N2c2ccc(Br)cc2)cc1 (centres undefined),107
Fc1ccc(CNc2nc(-c3nnc(-c4ccccc4)o3)nc3ccccc23)cc1,104
CCOC(=O)C1CCN(C(=O)c2cc3n(n2)C(C(F)(F)F)CC(c2ccc(OC)c(OC)c2)N3)CC1 (centres undefined),97
Cc1cc(-c2c(C)sc(C)c2S(=O)(=O)NCCc2ccc(Cl)cc2)n[nH]1,97
COc1ccc(CNC(=O)C2CCCN(c3nn4c(=O)c5c(nc4s3)CCCC5)C2)cc1 (centres undefined),105

# Other entries follow:
SMILES,GIV-Gai inh
CC(=O)N1c2ccccc2-c2ccccc2S1(=O)=O,105
CC(=O)N(Cc1ccccc1)c1nc2ccccc2n(CC(=O)Nc2cccc(Cl)c2)c1=O,109
CC(=O)N1Cc2[nH]c3ccccc3c2CC1C(=O)O (centres undefined),110
Cc1nnc2ccc(-n3ncc4c3NC(=O)CC4c3ccc(OCc4ccc(F)cc4)cc3)nn12 (centres undefined),104
Cn1c(=O)n(C)c2cc(S(=O)(=O)N3CCc4ccccc43)ccc21,103
Cc1cc(C)cc(NC(=O)CSc2nnc3ccc(C(=O)Nc4cccc(C)c4)cn23)c1,108
COC(=O)c1ccccc1NC(=O)Nc1c(-c2ccncc2)[nH]c2ccc(Cl)cc12,99
COc1cccc(NS(=O)(=O)c2cc(C(=O)N3CCCCC3)ccc2NCCc2ccc(OC)c(OC)c2)c1,106
CCN1CCCc2cc(C(=O)NC3CCCCC3)sc21,104
Cc1ccc(Nc2nc(C3(C)CC4(CC(COCC(C)C)OC4=O)C(=O)O3)cs2)cc1 (centres undefined),104
COc1cccc(C2=N/C(=C\c3ccccc3OC)C(=O)N2c2ccc(C)c(F)c2)c1,61*
CCOC(=O)C1=NN(c2ccc(Br)cc2)C2(S1)SC(c1ccc(Cl)cc1)(c1ccc(Cl)cc1)c1ccccc12 (centres undefined),111
COc1ccccc1C1c2c(-c3ccccc3)n[nH]c2C(=O)N1c1ccc(Cl)cc1 (centres undefined),116
CC(C)(C)C(C(Oc1ccc(Cl)cc1)n1cncn1)n1nnnc1C(c1ccccc1)N1CCCCC1 (centres undefined),105
COCCNC(=O)Nc1c(-c2cccnc2)[nH]c2ccc(F)cc12,107
CCOC(=O)c1ccc(N2C(=O)C(=O)/C(=C(/O)c3ccc(OC)cc3)C2c2ccccc2Cl)cc1 (centres undefined),115
Cc1cc(N2CCN(C)CC2)n2nc(CN3CCN(c4ccc(Cl)cc4)CC3)nc2n1,106
COC(=O)C1C(=O)NC(SCC(=O)Nc2ccc(Br)cc2)=C(C#N)C1c1ccccc1OC (centres undefined),104
CN(C)c1nc2ncn3c(=O)n(CC(=O)NC4CCc5ccccc54)nc3c2s1 (centres undefined),105
CCc1cc(Sc2ccc(NC(=O)C(C)(C)C)cc2)n2ncnc2n1,98
CCOC(=O)c1[nH]c(C)c(CN(Cc2ccc(OC)cc2)C(=O)Nc2ccccc2OCC)c1C,110
COc1ccc([N+](=O)[O-])cc1CSc1nc2ccc(NC(C)=O)cc2s1,108
Cc1cc(Sc2ccc(NC(=O)Nc3ccccc3F)cc2)n2ncnc2n1,105
CC(=O)c1cccc(NC(=O)c2cc3nc(-c4ccc5c(c4)OCO5)cc(C(F)(F)F)n3n2)c1,110
O=c1n(Cc2cc(F)cc(F)c2)nc2c(S(=O)(=O)N3CCCCCC3)cccn12,106

# Structures shown so far that have a CF3 group, in the order listed:
SMILES,GIV-Gai inh
CCOc1ccc2c(c1)N(C(=O)C(F)(F)F)C(C)(C)C(=S)C2=C1SC(C(=O)OC)=C(C(=O)OC)S1,111
O=C(c1ccc(C(F)(F)F)s1)N1C[C@@H]2C[C@H](NS(=O)(=O)c3cccs3)[C@H]1C2,95
COc1cccc(C(=O)N2N=C(C(F)(F)F)CC2(O)c2cccc(OC)c2)c1 (centres undefined),105
CCOC(=O)C1CCN(C(=O)c2cc3n(n2)C(C(F)(F)F)CC(c2ccc(OC)c(OC)c2)N3)CC1 (centres undefined),97
CC(=O)c1cccc(NC(=O)c2cc3nc(-c4ccc5c(c4)OCO5)cc(C(F)(F)F)n3n2)c1,110

# Other entries
SMILES,GIV-Gai inh
Cc1csc(-c2csc(S(=O)(=O)N3CCN(c4ccc(Cl)cc4)CC3)c2)n1,96
COc1ccc(CNS(=O)(=O)c2ccc(F)c(C(=O)Nc3c(F)cc(F)cc3Br)c2)cc1,112
O=S(=O)(Nc1ccc2c(c1)OCCO2)c1ccc(-c2nnc(C3CC3)o2)o1,109
CC(=O)C1=C(C)NC(SCc2cccc([N+](=O)[O-])c2)=C(C#N)C1c1ccc(Cl)cc1 (centres undefined),107
O=C(Nc1ccc(Oc2ccccc2)cc1)C1CCCN(S(=O)(=O)Cc2ccccc2)C1 (centres undefined),99
O=C(CCc1nc2ccccc2n(CC(=O)Nc2ccc3c(c2)OCCO3)c1=O)NCc1ccccc1,97
COc1cc(C(=O)N2c3ccccc3N3C(c4c(C)c(C)cc(C)c4C)=NON23)cc(OC)c1OC,103
Cc1cc2c(cc1S(=O)(=O)N(C)CC(=O)N(C(C)C)C1CCCCC1)OCC(=O)N2,102
Cc1ccccc1-c1cc2n(C)c(C)c(CCC(=O)N3CCN(C)CC3)c(=O)n2n1,101
Cc1ccc(-c2nc(C)c(C(=O)N3CCC(CC(=O)NCc4cccnc4)CC3)s2)cc1,98
